Source: PubChem
Rce1 inhib = yeast Rce1p protease inhibitors, primary screen, biochemical, fluorescence, cell-free homogeneous. CAAX prenyl protease 2 (Saccharomyces cerevisiae (strain ATCC 204508 / S288c)), Q03530. yeast membranes, quenched prenylated peptide cleavage fluorescence. AID 2563, 2010. 290,000 tested, 0.27% active. calls only;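 active = fall in fluorescence gain of 50% or more versus controls, with final raw signal at or below 3038400; inconclusive = same 50% fall but final raw signal above 3038400; inactive = fall in fluorescence gain under 50%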;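 note: plate controls were neutral control wells for no effect and wells lacking membranes for full effect; tested at 10 µM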
Target sequence (Q03530 whole entry, looked up): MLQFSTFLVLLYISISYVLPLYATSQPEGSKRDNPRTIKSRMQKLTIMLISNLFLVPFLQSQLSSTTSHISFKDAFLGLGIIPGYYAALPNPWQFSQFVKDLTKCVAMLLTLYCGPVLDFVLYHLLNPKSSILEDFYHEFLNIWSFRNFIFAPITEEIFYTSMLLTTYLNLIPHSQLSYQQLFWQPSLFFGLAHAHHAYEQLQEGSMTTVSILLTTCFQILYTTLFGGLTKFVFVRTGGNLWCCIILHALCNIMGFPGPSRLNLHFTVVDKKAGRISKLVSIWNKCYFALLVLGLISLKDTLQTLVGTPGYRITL
PABP polyA inh = PABP poly(A) RNA binding inhibitors, primary screen, biochemical, fluorescence polarization, uHTS; Polyadenylate-binding protein 1 (Homo sapiens), P11940; inhibition, % at 35 µM; 290,000 tested, 1% active; AID 2014, 2009;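 active = 50% or more with normal probe brightness, or confirmed in later tests; inconclusive = above 50% with abnormal brightness, or retests that disagree; inactive = below 50% or failed in later tests; about a fifth of its hits are not listed in these tables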;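 note: calls also rest on retests at 20 µM and on dose response follow-up; controls were probe without protein and protein plus probe with vehicle; some compounds called inactive have numbers as strong as hits; many hits fall short of the cut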
Target sequence (P11940 whole entry, looked up): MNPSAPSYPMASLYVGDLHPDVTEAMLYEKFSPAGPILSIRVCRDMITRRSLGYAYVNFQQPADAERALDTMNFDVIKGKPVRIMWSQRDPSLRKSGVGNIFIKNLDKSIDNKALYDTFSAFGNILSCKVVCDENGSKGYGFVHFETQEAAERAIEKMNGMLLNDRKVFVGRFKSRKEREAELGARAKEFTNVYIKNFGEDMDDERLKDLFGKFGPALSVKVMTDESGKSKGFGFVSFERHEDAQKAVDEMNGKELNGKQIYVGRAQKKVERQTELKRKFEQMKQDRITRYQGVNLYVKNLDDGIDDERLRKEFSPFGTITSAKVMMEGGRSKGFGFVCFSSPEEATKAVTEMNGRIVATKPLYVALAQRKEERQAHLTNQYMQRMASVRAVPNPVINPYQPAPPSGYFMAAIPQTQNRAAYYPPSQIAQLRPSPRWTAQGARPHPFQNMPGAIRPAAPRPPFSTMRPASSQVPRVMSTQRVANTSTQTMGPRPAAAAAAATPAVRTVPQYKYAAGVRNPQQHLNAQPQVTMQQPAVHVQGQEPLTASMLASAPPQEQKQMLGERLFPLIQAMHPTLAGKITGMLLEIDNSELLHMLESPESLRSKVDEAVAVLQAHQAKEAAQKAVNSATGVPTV
Env fusion inh = inhibitors of HIV-1 Env-driven cell-cell fusion, primary screen, HeLa-JRFL effector, CEM21 target cells, luciferase. inhibition, % at 12.3 µM. 360,000 tested, 1.1% active;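 active = mean replicate inhibition score of at least 50 and every replicate individually at or above 50; inconclusive = only one of the two criteria met; inactive = mean below 50 and not all replicates reaching 50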;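 note: 0% = plate neutral controls and 100% = maraviroc near 300 nM; one replicate is shown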
CSC inhib = cancer stem cell viability inhibitors, primary screen, luminescence | cancer stem cell-like cells viability | AID 2717, 2010 | 300,000 tested, 1.1% active | inhibition, % at 7.5 µM;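 active = mean at 75% or more and at least half the replicates too; inconclusive = mean and replicates disagree; tested in HMLE shEcad cells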;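 note: 0% = median of negative and 100% = median of positive control wells; the first replicate is given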
Yeast UUG start = modulators of yeast start codon fidelity, primary screen, whole organism, S. cerevisiae, single point, plate reader. S. cerevisiae UUG-firefly luciferase reporter, luminescence/redox ratio. AID 602363, 2012. 350,000 tested, 0.13% active. activity score, % at 18.7 µM;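 active = replicate mean at a twofold rise or more, about +100% in these data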;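 note: firefly luciferase made from a UUG start codon reports start codon fidelity; reporter light over untreated wells divided by growth signal over untreated wells; some hits fall short of that in this replicate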
MT1-MMP act inh = blockers of MT1-MMP proenzyme processing, primary screen, HT1080 RFP-PRO-GFP cells, GFP/RFP fluorescence; 360,000 tested, 0.061% active; GFP/RFP ratio change, % at 20 µM; AID 651647, 2012; GFP/RFP ratio fluorescence, overnight; percent of plate control window, DMSO zero; Matrix metalloproteinase-14 (Homo sapiens), P50281;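 active = GFP/RFP ratio change of at least 30% with cell ATP level not reduced by more than half and red fluorescence within 50% of control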; note: strong numbers were not always called active
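system = RFP-PRO-GFP reporter HT1080 cells | dosing = 20 µM single dose, 1% DMSO | timing = overnight cell settling, then overnight compound exposure, 37 °C, 5% CO2 | read-out basis = GFP/RFP fluorescence ratio | controls = DMSO and RFP-L50D-GFP cell wells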
eIF4H inh = human eIF4H binding inhibitors, primary screen, translation initiation inhibitor project, biochemical, uHTS, fluorescence polarization; eIF4H fluorescence polarization binding assay; 290,000 tested, 0.94% active; inhibition, % at 35 µM;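 active = 50% or more with normal probe brightness, or confirmed in later tests; inconclusive = above 50% with abnormal brightness, or retests that disagree; inactive = below 50% or failed in later tests; about a fifth of its hits are not listed in these tables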;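 note: calls also rest on retests at 20 µM and on dose response follow-up; 0% = protein and probe with vehicle and 100% = probe without protein; strong numbers were not always called active; many hits fall short of the cut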
eIF4H inh retest = further read-out of eIF4H inh, marked with its call; inhibition, %; compound at 20 µM; confirmation average;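 mean of two retest wells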
PABP polyA inh retest = second read-out of PABP polyA inh, no call of its own (marks repeat the call); inhibition, %; compound at 20 µM; confirmation repeats;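 mean of two retest wells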
MT1-MMP act inh RFP = also measured in MT1-MMP act inh; calls as there; RFP signal change, %; measured here: RFP expression control read;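 0 = vehicle wells; hits needed this value within 50% of zero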
Numbers without * were called inactive; i = inactive; ? = inconclusive; nt = not tested or not shown.

SMILES | Rce1 inhib | PABP polyA inh | Env fusion inh | CSC inhib | Yeast UUG start | MT1-MMP act inh | MT1-MMP act inh RFP | eIF4H inh | others
CCNC(=S)Nc1ccc(C)c(Cl)c1 | i | 15 | 4 | 3 | nt | 9 | 3 | -6
O=C(Cc1c(O)c2ccccc2[nH]c1=O)NCc1cccc(F)c1 | i | -3 | nt | -10 | -9 | 0 | 5 | -5
COc1ccc(C(=O)Nc2ccc(S(=O)(=O)N3CCOCC3)cc2)cc1[N+](=O)[O-] | i | -8 | -13 | -8 | -20 | 4 | -5 | -13
Cc1cccc(C(O)c2ncc(-c3ccc4ccccc4c3)[nH]2)c1C (stereo not given) | nt | nt | -3 | nt | -6 | 6 | -1 | nt
COCCNC(=O)c1onc(CSc2ccccc2F)c1C(=O)O | i | 17 | -8 | -3 | 3 | 1 | 3 | 1
Cc1nc([N+](=O)[O-])c(N2CCOCC2)n1Cc1ccccc1 | i | 9 | 6 | -8 | -13 | -1 | -1 | -6
O=C(NCCc1ccc(Cl)cc1)c1cccc(NC2=NC3CS(=O)(=O)CC3S2)c1 (stereo not given) | i | -16 | 3 | -2 | -11 | 0 | 4 | -6
CN(C)CCCn1c(=S)[nH]c2sc3c(c2c1=O)CCCC3 | i | 5 | -25 | ? | -16 | -4 | -2 | -3
CC(/C=C/c1ccccc1)=N\NC(=O)Cn1nc(C)cc1C | i | 7 | 13 | 2 | nt | -1 | 0 | 1
COc1ccc(-c2noc(CCC(=O)NCCc3cccc(C)c3)n2)cc1 | i | 10 | -18 | 4 | nt | 0 | -1 | 13
COc1ccc(CN2C(=O)C(CC(=O)NCCc3ccccn3)CC(C(=O)N(C(C)C)C(C)C)=C2C)cc1 (stereo not given) | nt | nt | 6 | nt | -20 | 1 | 5 | nt
O=C(NC1=NCCS1)c1ccc(Cl)c(S(=O)(=O)N2CCCCCC2)c1 | i | -10 | 18 | -9 | nt | 1 | -4 | 0
CC1(C)Cc2nc3sc4c(SCC(=O)NCc5ccccc5)ncnc4c3cc2CO1 | i | 5 | -296 | 55 | 3 | 14 | -10 | -7
OCC[C@H]1C[C@@H](O)[C@H](O)[C@@]2(CCCc3ccccc3O2)O1 | nt | nt | -16 | 0 | -10 | -4 | 4 | nt
CCOCCOCCC(C(=O)O)P(=O)(c1ccccc1)c1ccccc1 (stereo not given) | i | 12 | -15 | 2 | -21 | 3 | 6 | 10
CCc1[nH]nc(C(=O)N2CCCC(N3CCN(c4ccccc4C)CC3)C2)c1C (stereo not given) | i | -10 | nt | 15 | -11 | 2 | -2 | -4
CC(C)C(OC(=O)c1nsc(Cl)c1Cl)C(=O)NCc1ccccc1 (stereo not given) | i | 2 | 22 | -4 | -26 | 0 | 0 | -6
CCCc1ncc(C(O)(c2ccccc2)c2ccccc2)n1C | i | -5 | 23 | 0 | nt | -1 | 1 | -11
COc1ccc(-c2nc3c(Cl)cc(C(F)(F)F)cn3c2Cc2ccc(C)cc2)cc1OC | nt | nt | -21 | nt | -8 | -1 | -1 | nt
COc1ccc(/C=C2\Sc3ccc(C(=O)NCC4CCCO4)cc3N(C)C2=O)cc1 (stereo not given) | i | -2 | -17 | 8 | -1 | 4 | -3 | -14
Cc1cccc(C(=O)NNC(=O)c2ccccc2C)c1 | i | 7 | -6 | -17 | nt | -1 | -1 | 0
COc1ccc(C2C(C(=O)c3ccco3)=C(O)C(=O)N2c2nnc(C)s2)cc1OC (stereo not given) | i | ? | -6 | 0 | -14 | -11 | 4 | ?
CCCOC(=O)Nc1cccc(C(C)=O)c1 | i | -7 | -73 | 7 | -25 | 4 | 4 | 2
COc1ccc(CC(=O)Nc2cc(C)ccn2)cc1OC | i | nt | -6 | -13 | -14 | -2 | -2 | nt
COc1cc(OC)cc(C(=O)O/N=C(\N)c2ccncc2)c1 | i | 1 | nt | 14 | -12 | -3 | 1 | -6

(more compounds)
SMILES | Rce1 inhib | PABP polyA inh | Env fusion inh | CSC inhib | Yeast UUG start | MT1-MMP act inh | MT1-MMP act inh RFP | eIF4H inh | others
CCOc1cc(/C=N/NC(=O)C(=O)N2CCCC2)ccc1O | i | -5 | -3 | nt | nt | 0 | 2 | -3
COCC(=O)NCc1nc2ccccc2[nH]1 | i | 4 | -1 | -15 | -20 | 6 | 7 | -6
COc1ccc2c(c1)c(C(=O)N/N=C/c1ccc(OC)c(OC)c1)c(C)n2C | i | 5 | -6 | 4 | -11 | 0 | 1 | 1
CCOC(=O)C1CCN(C(=O)c2ccc3c(=O)n4nc(Nc5ccccc5OC)sc4nc3c2)CC1 | nt | nt | -18 | nt | -8 | -1 | 1 | nt
Cc1cc(Nc2ccc([N+](=O)[O-])cc2)nc2ccccc12 | i | -9 | 20 | -7 | nt | 4 | 5 | 7
O=C(O)c1ccc(NC(=S)NC(=O)c2ccc(-c3ccc(Br)cc3)o2)cc1 | i | -1 | -10 | 21 | -9 | -1 | 7 | 47
CN1CCCC(OC(=O)c2ccc(C(C)(C)C)cc2)C1 (stereo not given) | i | 4 | -9 | 49 | -1 | 0 | 3 | 0
COc1cccc(-c2[nH]nc3c2C(c2ccoc2)C(C#N)=C(N)O3)c1 (stereo not given) | i | 14 | -21 | -9 | -19 | -4 | 1 | 41
CCOC(=O)c1cnn(-c2nc(-c3ccccc3)nc3c2COC(C)(C)C3)c1N | i | -6 | nt | -6 | 5 | 1 | -4 | -3
CCOC(=O)N1CCC(NC(=O)c2cc(C(=O)Nc3ccc(OCC)cc3)ccc2CO)CC1 | i | -4 | nt | nt | -7 | 2 | -4 | -4
CC(=O)OCCN(CCOC(C)=O)c1c(C)[nH]c(=O)[nH]c1=O | i | 5 | -49 | -21 | -23 | 1 | 2 | -2
COC(=O)CSc1nnc(-c2ccc(S(=O)(=O)NCc3ccccc3Cl)cc2)o1 | i | 12 | -62 | -1 | -8 | -1 | -4 | -1
CCC(C)(C)C1CCC(=NNC(=S)Nc2ccccc2)CC1 (stereo not given) | i | -4 | 10 | 6 | -17 | 0 | 2 | -8
O=C(Nc1ccccc1Cl)Nc1ccnn1C1CCN(C(=O)c2cscn2)CC1 | i | 2 | nt | 9 | -15 | -2 | 0 | 1
CN1C[N+]([O-])=C(c2ccccc2)C1(C)C | i | -4 | -72 | 0 | -3 | 5 | 2 | 1
CCOc1ccc(N2C(=O)CNC2=S)cc1 | i | ? | -38 | 14 | 1 | -9 | 0 | ?
CCCNC(=O)CSc1nc(Cc2ccccc2)nc2ccccc12 | i | -18 | 10 | 1 | -12 | -1 | -4 | -6
CC(=O)OC[C@H]1O[C@@H](O[C@H]2C[C@]3(C)C(C[C@@H](O)C4C([C@]5(C)CC[C@@H](C(C)(C)O)O5)CC[C@]43C)[C@@]3(C)CC[C@H](O)C(C)(C)C23)[C@H](O[C@@H]2O[C@@H](C)[C@H](O)[C@@H](O)[C@H]2O)[C@@H](O)[C@@H]1O (stereo not given in full) | nt | nt | -36 | -10 | -3 | -2 | 1 | nt
CC(C)(C)c1nnc(NC(=O)C2CC(=O)N(CCc3ccc(F)cc3)C2)s1 (stereo not given) | i | 5 | 8 | -11 | -5 | 3 | -5 | -3
CS(=O)(=O)N(CC(=O)Nc1ccccc1C(=O)N1CCOCC1)c1cccc([N+](=O)[O-])c1 | i | 71 | 5 | -1 | -11 | 2 | 8 | -12 | eIF4H inh retest=6;PABP polyA inh retest=11
Cc1ccccc1N(C(=O)Cc1cccs1)C(C(=O)NCC1CCCO1)c1cccnc1 (stereo not given) | i | -2 | nt | -1 | -11 | 1 | 4 | -4
O=C(NCc1ccc2c(c1)OCO2)c1ccc(Cl)s1 | i | 9 | 6 | nt | -7 | -4 | -3 | 0
Cc1ccc(S(=O)(=O)N2CCCCC2C)cc1[N+](=O)[O-] (stereo not given) | i | -5 | 3 | -8 | -7 | 2 | 0 | -9
CC1CCCCN1C(=O)C12CCC(C)(/C(=N/O)C1)C2(C)C (stereo not given) | i | -5 | -28 | -5 | -8 | 3 | 2 | -2
O=C(Cc1ccc(F)cc1)OCC(=O)N1CCN(S(=O)(=O)c2ccc(Cl)cc2)CC1 | i | nt | -2 | nt | 2 | 4 | -2 | nt

A stretch from the list above, as a working copy:
SMILES | Rce1 inhib | PABP polyA inh | Env fusion inh | CSC inhib | Yeast UUG start | MT1-MMP act inh | MT1-MMP act inh RFP | eIF4H inh | others
COc1cccc(-c2[nH]nc3c2C(c2ccoc2)C(C#N)=C(N)O3)c1 (stereo not given) | i | 14 | -21 | -9 | -19 | -4 | 1 | 41
CCOC(=O)c1cnn(-c2nc(-c3ccccc3)nc3c2COC(C)(C)C3)c1N | i | -6 | nt | -6 | 5 | 1 | -4 | -3
CCOC(=O)N1CCC(NC(=O)c2cc(C(=O)Nc3ccc(OCC)cc3)ccc2CO)CC1 | i | -4 | nt | nt | -7 | 2 | -4 | -4

(cont.)
SMILES | Rce1 inhib | PABP polyA inh | Env fusion inh | CSC inhib | Yeast UUG start | MT1-MMP act inh | MT1-MMP act inh RFP | eIF4H inh | others
O=C(Cc1c(F)cccc1Cl)N1CCCC1 | i | -11 | nt | -9 | nt | 8 | 8 | -12
CC(C(=O)N(C)C1CCS(=O)(=O)C1)N1C(=O)/C(=C/c2ccc(F)cc2)SC1=S (stereo not given) | i | -9 | 15 | 31 | nt | 1 | -11 | -12
Cc1ccc2oc(-c3cccc(NC(=S)NC(=O)c4cccs4)c3)nc2c1 | i | 5 | -50 | -2 | -17 | 5 | 1 | -2
COc1cc2c(cc1OC)CN(C(=O)CCNS(=O)(=O)c1ccccc1F)CC2 | i | 11 | -7 | nt | -6 | 1 | 2 | 0
O=C(c1ccc(S(=O)(=O)N2CCOCC2)cc1)N1CCN(S(=O)(=O)c2ccc(Cl)s2)CC1 | i | -11 | 13 | 59 | 1 | -7 | -8 | -1
Cc1ccc(S(=O)(=O)N2CCCC2C(=O)NCCc2nc3ccccc3[nH]2)cc1 (stereo not given) | i | -7 | -5 | -19 | 19 | 4 | -2 | 8
O=S(=O)(Nc1ccc2c(c1)OCCO2)c1c(F)cccc1F | i | -6 | 2 | nt | -19 | 4 | 2 | 5
COc1ccccc1CNC(=O)COC(=O)Cc1ccc(Cl)cc1 | i | -10 | -47 | -3 | nt | 4 | 2 | -20
O=C(Nc1cccc(C(F)(F)F)c1)c1cccnc1N1CCN(CCO)CC1 | i | -4 | -26 | -3 | -10 | 4 | 2 | -1
COc1ccccc1/C=C/C(=O)NCC(=O)N/N=C(/C)c1ccc(Cl)cc1 | i | 9 | 2 | -9 | -10 | 1 | 0 | 0

Reprinted at random: 3 compounds from above.
SMILES | Rce1 inhib | PABP polyA inh | Env fusion inh | CSC inhib | Yeast UUG start | MT1-MMP act inh | MT1-MMP act inh RFP | eIF4H inh | others
COc1ccccc1CNC(=O)COC(=O)Cc1ccc(Cl)cc1 | i | -10 | -47 | -3 | nt | 4 | 2 | -20
Cc1ccc(S(=O)(=O)N2CCCC2C(=O)NCCc2nc3ccccc3[nH]2)cc1 (stereo not given) | i | -7 | -5 | -19 | 19 | 4 | -2 | 8
O=C(Cc1c(F)cccc1Cl)N1CCCC1 | i | -11 | nt | -9 | nt | 8 | 8 | -12
